# High-throughput results from PubChem BioAssay.
# LT uptake inh – inhibitors of anthrax lethal toxin internalization | 70,000 tested, 0.67% active | Potency, µM (series often up to 40 µM), inactives show at the top dose activity change, negative = inhibition, actives largely listed as inhibitors | AID 912 | Cells, anthrax lethal toxin internalization, FRET ratio (460/530); active = well fitted falling ratio curve with the 530 nm signal flat; inconclusive = other ratio curves, or a change in one channel alone; inactive = flat curves in the ratio and both channels; the % refers to the ratio; further: on the % scale 0 is the no-effect control and ±100 the full control effect; nearly all actives have a fitted effect of over 50% in size; tested in ME-180 cells; beta-lactamase reporter
# Prx2 Sm inh – inhibitors of Schistosoma mansoni peroxiredoxin 2. S. mansoni Prx2 activity coupled to TGR/GSH (TGR is thioredoxin glutathione reductase), NADPH fluorescence loss, qHTS; some inactives read as strong as hits. Potency, µM. 65,000 tested, 0.07% active; active means full or partial inhibition curve with a strong effect at the top dose; inconclusive means weaker partial or single-point curve; inactive means no accepted curve; further: series up to 57 µM; many of its hits are not listed in these tables
#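 Coupled assay in which S. mansoni TGR passes NADPH reducing equivalents via glutathione to Prx2, which reduces H2O2. Compounds were preincubated 15 min at room temperature with 25 nM TGR/50 nM Prx2 mix. Kinetic NADPH fluorescence loss (ex 365/em 450 nm) was monitored.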
# * = called active by the depositor; ? = inconclusive; / = not tested or not shown; & = joins results of further samples; [ ] = another dose, or the depositor's remark. Potency means the concentration at half of the fitted maximal effect. Some of the compounds tested (hit frequency here may not be typical).
mol	LT uptake inh	Prx2 Sm inh
COc1cccc(-c2nc(Cc3ccc(OC)c(OC)c3)no2)c1	-17.9%	>57
COCCNc1ccnc(-c2cccc(NS(C)(=O)=O)c2)n1	-1.5%	>57
COc1ccc(Oc2nc(C)cc(C)c2C#N)cc1	/	>57
Cc1oc(-c2ccc(Cl)cc2)nc1CS(=O)CC(=O)NCCN1CCCC1 (stereo not given)	-16.9%	>57
O=C(C[C@H](c1ccccc1)c1c(O)c2ccccc2oc1=O)c1ccccc1	8.4%[8 µM]	>57
CCC1(c2ccccc2)C(=O)NCNC1=O	-0.4%	>57&>57&>57
O=C(CNS(=O)(=O)c1ccc(C(=O)N2CCOCC2)cc1)N1CCOCC1	-10.9%	>57
CC(=O)N1CCc2cc(S(=O)(=O)NCCC(=O)NCCc3ccccc3)ccc21	1.0%	>57
CCc1ccc2c(c1)N(C[C@H](C)CN(C)C)c1ccccc1S2	-24.9%[8 µM]	>57
c1ccc(CNc2ncnc3ccc(-c4cccnc4)cc23)cc1	?	>57
CSC1=C(C#N)C(c2ccc(C)cc2)C2=C(CCCC2=O)N1 (stereo not given)	3.1%	>57
Cc1cccc(NC(=O)c2cc(NC(=O)C3CCCCC3C(=O)O)ccc2N2CCCCC2)c1 (stereo not given)	-22.5%	>57
c1ccc2c(CCNc3ncnc4nc[nH]c34)c[nH]c2c1	7.0%	>57
O=C(OCc1cc2ccccc2[nH]c1=O)c1ccncc1	5.2%	>57
COc1ccccc1-n1cnnc1SC1CCOC1=O (stereo not given)	-6.1%	>57
CCN(CC)CCCN=Cc1c(O)n(-c2ccccc2F)c(=O)[nH]c1=O	-5.7%	>57
O=c1cc(NCc2ccco2)[nH]c(=O)n1-c1ccc(Br)cc1	?	?
N#CC1=C2SCN(Cc3ccccc3)CN2C(=O)CC1c1ccc2c(c1)OCO2 (stereo not given)	?	>57
N#Cc1c(NC(=O)c2ccncc2)sc2c1CCC2	-29.2%	>57
CCOC(=O)N/N=C1/C[C@@H](O)[C@@H](O)[C@@H]2[C@@H]3C(=O)N(c4cccc(Oc5ccccc5)c4)C(=O)[C@H]3CC[C@@H]12	-0.4%[8 µM]	/
COc1ccc(NC2=C(C(C)=O)C(c3ccc4c(c3)OCO4)C(C(C)=O)C(C)(O)C2)cc1 (stereo not given)	2.3%	>57
O=C(C1CCN(S(=O)(=O)c2ccc(F)cc2)CC1)N1CCOCC1	11.9%	>57
C/C(NCCCn1ccnc1)=C(\C#N)C(N)=O	9.4%	>57
CC(C)COCC1CC2(CC(C)C(=O)CC2=O)C(=O)O1 (stereo not given)	-3.5%	>57
Cc1cc(C)cc(CC2CC(=O)N(c3nc(C)cc(C)n3)C2=O)c1 (stereo not given)	-8.5%	>57
O=C(O)CN(c1ccc2c(c1)OCCO2)S(=O)(=O)c1ccccc1	?	>57
CC(=O)c1c(C)[nH]c(C(=O)NC2=NCCS2)c1C	14.3%	>57
COc1ccc(-c2c(C(F)(F)F)oc3c(CN4CCN(C)CC4)c(O)ccc3c2=O)cc1	-9.6%	>57
Cc1[nH]c(=O)[nH]c(=O)c1S(=O)(=O)N1CCCC(C(=O)N2CCN(c3ccccc3Cl)CC2)C1 (stereo not given)	3.2%	>57
CN(Cc1ccccc1)c1nc2c(c(=O)n(C)c(=O)n2C)n1CCCc1ccccc1	?	>57

# Structures from the list above that have fluorine, in the order listed:
mol	LT uptake inh	Prx2 Sm inh
CCN(CC)CCCN=Cc1c(O)n(-c2ccccc2F)c(=O)[nH]c1=O	-5.7%	>57
O=C(C1CCN(S(=O)(=O)c2ccc(F)cc2)CC1)N1CCOCC1	11.9%	>57
COc1ccc(-c2c(C(F)(F)F)oc3c(CN4CCN(C)CC4)c(O)ccc3c2=O)cc1	-9.6%	>57

# The results go on.
mol	LT uptake inh	Prx2 Sm inh
CCOC(=O)CNC(=O)Cn1cnc2c(nnn2-c2cccc(Cl)c2)c1=O	-7.1%	>57
CCOc1ccc(S(=O)(=O)N(CC(N)=O)c2ccc(C)cc2)cc1	4.6%	>57
Cc1nc2sccn2c(=O)c1CCN1CCC(=C(c2ccccc2)c2ccc(F)cc2)CC1	?	>57
COCC(=O)Nc1nnc(CCc2ccccc2)s1	-3.2%	>57
CC1CCN(C(=O)C(Cc2ccccc2)n2cccc2)CC1 (stereo not given)	8.6%	>57
Cc1nn(CC(=O)NCc2ccccc2)c(=O)c2ccccc12	-11.6%	>57
C/C(N)=C(/C#N)C(=O)COC(=O)c1ccncc1	-11.2%	>57
O=C(CN(Cc1ccco1)C(=O)CNS(=O)(=O)c1ccc(Cl)cc1)NC1CCCCC1	2.3%	>57
COc1ccc(C2C(C(N)=O)=C(C)Nc3ncnn32)cc1 (stereo not given)	1.6%	>57
COc1ccc(/C=C/N(CCc2ccc(OC)c(OC)c2)C(C)=O)cc1	-4.8%[8 µM]	/
CC(C)=NOC[C@@H](O)[C@@H]1O[C@@H]2OC(C)(C)O[C@@H]2[C@H]1O	2.0%[8 µM]	/
COC(=O)c1c(C(C)=O)cnc2ccc(Br)cc12	-6.2%	>57
C[C@H]1C(=O)O[C@H]2CCN3CC=C(COC(=O)[C@](C)(O)[C@@]1(C)O)[C@H]23	3.1%	>57
CC(=O)[C@@H]1[C@H]2[C@@H](C(=O)[C@H]3OC[C@H]2O3)[C@@H]2C=Cc3ccccc3N12	-9.5%	>57
CC1=C(C(=O)OC2CCCCCCC2)C(c2ccc(O)cc2)NC(=O)N1 (stereo not given)	?	>57
CN(CCc1ccccn1)c1ccc2c(c1)Cc1ccccc1-2	?	>57
O=C(CSc1nnc(-c2cccnc2)n1Cc1ccco1)c1ccccc1	5.4%	>57
CCOC(=O)C1CCCN(C(=O)CS(=O)(=O)Cc2ccccc2)C1 (stereo not given)	6.2%	>57
CCn1c(SCc2nc3ccccc3[nH]2)nnc1-c1ccncc1	6.9%	>57
O=C(c1csnn1)N1CCC2(CCN(Cc3nccs3)CC2)CC1	17.1%	>57
O=c1c(-c2ccc(F)c(F)c2)nc2cncnc2n1Cc1ccc(F)cc1	?	>57
O=C(NC1CCCCC1)c1sc(=S)n2c1[nH]c(=O)c1ccccc12	-0.4%	>57
COc1ccc2c(c1)Sc1ccccc1N2CCN(C)C	?	>57
CCSC(C)CC1C/C(=N/O)c2c(CC)noc2C1 (stereo not given)	-3.6%	/
COc1ccc(C)cc1NCc1cccc(OC)c1OC	-13.4%	>57
COc1ccc(-c2nc3cnc(N4CCOCC4)nc3n(Cc3cccs3)c2=O)cc1	-5.3%	>57
Cc1ccc(-c2nc(NC(=O)CSc3nnc4scc(-c5ccccc5)n34)ns2)cc1	?	>57
CCCN(Cc1ccccc1)C(=O)Nc1ccc2c(c1)nnn2C	17.3%	>57
COC(=O)Cc1[nH]nc2c1C(c1c[nH]c3ccccc13)C(C#N)=C(N)O2 (stereo not given)	11.8%	>57
CS(=O)(=O)c1ccc([C@H](O)[C@H](CO)NC(=O)C(Cl)Cl)cc1	-1.2%[3.58 µM]	>25.6
CC1(C)Oc2ccc3ccc(=O)oc3c2-c2cnoc21	-8.4%	>57
OC(CN1CCOCC1)CN1CCOCC1	-8.2%	>57
Cn1c(=O)c2c(nc(SCCCO)n2Cc2ccccc2Cl)n(C)c1=O	12.9%	>57
c1ccc([C@@H]2CN3CCSC3=N2)cc1	?	>57&>57&>57
Clc1ccc(OCc2nnc3n2N=C(c2ccc4c(c2)OCCO4)CS3)c(Cl)c1	9.7%	>57
CC(C(=O)NC1=NCCS1)N1C(=O)C2CC=CCC2C1=O (stereo not given)	-12.2%	>57
CCOP(=O)(c1ccc(N(C)C)cc1)C(O)c1cc(OC)c(OC)c(OC)c1 (stereo not given)	-12.2%	>57
CCOc1cccc(C(=O)Nc2cccc(-c3nc4ncccc4o3)c2C)c1	-8.1%	>57
CC(=O)c1cccc(NC2c3ccccc3C(=O)N2Cc2ccc3c(c2)OCO3)c1 (stereo not given)	-18.3%	>57
CC(=O)N1CCN(c2ccc(NCc3ccc(C(C)C)cc3)cc2)CC1	-12.2%	>57
COc1cc2c(cc1OC)-c1nnc(C)n1C1(CCCC1)C2	1.6%	>57
Cc1ccc(Oc2ccc(OCC(=O)NC(C)C(=O)O)cc2)cc1 (stereo not given)	-0.1%	>57
Cc1cc(C(F)(F)F)n2ncc(C(=O)O)c2n1	-4.3%	>57
CN1CCN(CCCNC(=O)c2ccc(CSCc3cccc(Cl)c3)o2)CC1	5.6%	>57
COc1ccc(-c2nc3cnc(Oc4ccccc4)nc3n(C3CC3)c2=O)cc1	-0.5%	>57
COC(=O)c1ccc(C2c3c(oc4cc(C)c(C)cc4c3=O)C(=O)N2CCCN(C)C)cc1 (stereo not given)	-20.7%	>57
CSCC[C@@H](C(=O)O)N(C)C	-6.9%[8 µM]	>57
CC1CCCCN1C(=O)COc1ccc(NC(=O)c2ccco2)cc1 (stereo not given)	3.8%	>57
CCOc1cc(S(=O)(=O)N2CCOCC2)ccc1F	-28.8%	>57
CC(=O)N1c2ccccc2C(C)CC12CCCCC2 (stereo not given)	-19.4%	>57
Cc1cc(=O)c2n(Cc3ccccc3Cl)nc[n+]2[nH]1	0.4%	>57
CS(=O)(=O)Nc1cccc(-c2nc(Nc3ccncc3)c3ccccc3n2)c1	-30.0%	>57
COc1ccc(C(=O)N2CCN(C(=O)c3ccco3)CC2)cc1OC	?	>57
O=c1[nH]c(=S)c2c(n1-c1ccccc1)CCC2	-7.6%	>57
O=c1c2ccccc2nnn1CSc1nnc(-c2ccc3c(c2)OCO3)o1	?	>57
CCn1c(SCC(=O)N2c3ccccc3CCc3ccccc32)nc2c1c(=O)n(C)c(=O)n2C	-1.1%	>57
Cn1c(=O)c2cc(S(=O)(=O)NCCC(=O)Nc3ccccc3F)ccc2n(C)c1=O	-12.8%	>57
CC1CCCCN1S(=O)(=O)c1ccc2c(c1)oc(=O)n2CC(=O)O (stereo not given)	5.2%	>57
O=C(CSc1nnc(-c2cccnc2)n1-c1ccccc1)Nc1ccccn1	12.3%	>57
CCC(C)c1ccc(O)c(NC(=O)c2ncn[nH]2)c1 (stereo not given)	/	>57

# The list goes on.
mol	LT uptake inh	Prx2 Sm inh
COCCn1c(SCC#N)nnc1-c1ccc2c(c1)OCO2	-8.0%	>57
O=C(NCc1ccco1)C1CC(=O)N(c2ccc(O)cc2)C1 (stereo not given)	-2.8%	>57
COC(=O)c1ccc(C(=O)OC)c(N)c1	?	>57
COc1ccccc1S(=O)Cc1ccc(C(=O)NCc2ccccc2Cl)o1 (stereo not given)	?	>57
CN(C)CC(=O)c1ccc(-c2ccccc2)cc1	-5.8%	>57
Cc1n[nH]c(=O)nc1N1CCc2ccccc2C1	0.4%	>57
CCn1c(=O)c(C(=O)Nc2nc3ccccc3[nH]2)c(O)c2ccccc21	-3.3%	>57
Cc1ccc(-c2nc(-c3ccccn3)no2)cc1Cl	?	>57
COc1ccc(CCNC(=O)CSc2nc3c(c(=O)n(C)c(=O)n3C)n2C(C)C)cc1OC	-3.9%	>57
Cc1nc2scc(-c3ccccc3)c2c(=O)o1	-2.5%	>57
CCOC(=O)Cc1nnc(NC(=O)c2ccccc2OC)s1	-8.6%	>57
Cc1noc(C)c1C(=O)Nc1ccc2c(c1)CCC2	-25.2%	>57
COCC(=O)NCCc1nc2ccccc2[nH]1	5.2%	>57
c1cnc(N2CCN(c3ncnc4c3oc3ccccc34)CC2)nc1	6.7%	>57
CCOC(=O)N1CCN(c2c(NCCN3CCCCC3CC)c(=O)c2=O)CC1 (stereo not given)	-8.6%	>57
COc1ccc2c(c1OC)C(=O)OC2c1c(O)n(Cc2ccc(F)cc2)c(=O)[nH]c1=O (stereo not given)	-18.8%	/
CCN=C1SC(CC(=O)Nc2sc(C)c(C)c2C(=O)OC)C(=O)N1CC (stereo not given)	13.9%	>57
Cc1ccc2nsnc2c1S(=O)(=O)NCc1cccnc1	-16.9%	>57
COc1ccc(CCNc2oc(COc3ccccc3F)nc2C#N)cc1OC	?	>57
CN(Cc1cnn(C)c1)C(=O)c1cc2ccccc2oc1=O	-33.1%	>57
CCO	-4.4%	/
COc1ccc(C2C(C(=O)NCCN(C)C)c3ccccc3C(=O)N2C)cc1OC (stereo not given)	14.3%	>57
Cc1cc(F)c(F)c(C(=O)N2CCN(C)CC2)c1Cl	5.8%	/
Cc1cccc(CCNC(=O)C2CCCN(S(=O)(=O)c3cnc[nH]3)C2)c1 (stereo not given)	0.8%	>57
CN(C)c1ccc(NC(=O)c2cc3c(=O)n4ccccc4nc3n2C)cc1	-2.4%	>57
c1ccc(C2=Nn3c(nnc3-c3cccnc3)SC2)cc1	23.4%	>57
CN(C)C(CNC(=O)CN1C(=O)NC2(CCc3ccccc32)C1=O)c1ccco1 (stereo not given)	-4.6%	>57
COC(=O)c1[nH]c2cccc(Cl)c2c1NC(=O)CN1CCN(CCO)CC1	/	>57
Cc1cc(C)c(S(=O)(=O)Nc2cccnc2)c(C)c1	-8.8%	>57
